# H5N1 antiviral – antiviral screen in MDCK cells, H5N1 avian flu; cytopathic effect, luminescence, 72 h; hits give high values; no value below 0 was filed and about half of the inactive calls have no number; reference of the scale not given here; inhibition, % at 50 µM; 96,000 tested, 0.07% active; AID 740; in the data active = inhibition above about 25%
# * hit, by the source's call; i = inactive.
SMILES,H5N1 antiviral
CN(C)c1ccc(NC(=O)CSc2nc3c(c(=O)[nH]2)CCCC3)cc1,0.2
COc1ccc2cc(CCNC(=O)C3CCCC3)c(=O)[nH]c2c1,1.2
Cc1nn(-c2ccccc2)c(Cl)c1C(=O)Nc1nnc(C2CCCC2)s1,i
COCc1c(C(=O)OCC(=O)c2c(N)n(CC(C)C)c(=O)n(C)c2=O)oc2ccccc12,0.5
O=S(=O)(c1ccccc1)c1nc(-c2ccccc2Cl)oc1NCCN1CCOCC1,i
N/C(=N\[N+](=O)[O-])N/N=C/c1ccc(O)cc1,i
Cc1nc2cc(NC(=O)Nc3nccs3)ccc2n1C,1.9
COc1ccc(N2CCN(S(=O)(=O)c3ccc(C(=O)NCc4ccco4)cc3)CC2)cc1,i
CCC(C)NC(=O)CN(c1ccc(OC)cc1)S(=O)(=O)c1ccc(NC(C)=O)cc1 (stereo unspecified),i
CCc1nnc(NC(=O)c2cccc(OC)c2)s1,i
CCCCOP(=O)(c1ccc(N(C)C)cc1)C(O)c1ccncc1 (stereo unspecified),i
N#CC1=C(N)Oc2n[nH]c(-c3ccncc3)c2C1c1ccsc1 (stereo unspecified),i
COc1ccc(CN2CCN(C(=O)CC(C)C)CC2)cc1OC,0.3
CC(=O)Nc1ccccc1OC(=O)N(C)C,i
Cc1cc(Nc2nc3ccccc3nc2Cl)n(-c2ccc([N+](=O)[O-])cc2)n1,i
COc1cc2c(cc1OC)C(C(=O)NCc1ccco1)C1c3ccccc3CCN1C2=O (stereo unspecified),1.0
CC(=O)c1c(C(C)=O)c(C)n(Cc2ccccc2)c1C,0.6
CCN(CC)CCCNS(=O)(=O)c1ccc(OC)cc1,1.4
COc1cc(C2C(C#N)=C(N)Oc3cc(C)n(CCc4ccccc4)c(=O)c32)cc2c1OCO2 (stereo unspecified),0.3
CC(=O)NC1(C(F)(F)F)C(=O)N(Cc2ccccc2)C2=C1C(=O)CC(C)(C)C2 (stereo unspecified),i
O=c1c(Cl)c(N/N=C/c2ccc(Br)cc2)cnn1-c1ccccc1,0.5
C=CCSc1nnc(NC(=O)c2ccc(Cl)nc2)s1,0.8
CCOC(=O)CCNc1n[nH]c(=O)[nH]c1=O,i
Cc1cc(C)nc(/N=c2/ssnc2Cl)c1,i
Cc1ccc(NC2=NCCCCC2)cc1,1.5

# Retrieved by compound from the list above (4):
SMILES,H5N1 antiviral
COc1ccc(N2CCN(S(=O)(=O)c3ccc(C(=O)NCc4ccco4)cc3)CC2)cc1,i
COc1ccc2cc(CCNC(=O)C3CCCC3)c(=O)[nH]c2c1,1.2
O=S(=O)(c1ccccc1)c1nc(-c2ccccc2Cl)oc1NCCN1CCOCC1,i
COc1cc(C2C(C#N)=C(N)Oc3cc(C)n(CCc4ccccc4)c(=O)c32)cc2c1OCO2 (stereo unspecified),0.3

# Other entries:
SMILES,H5N1 antiviral
CC1(C)CC(=O)C2=C(C1)N(Cc1ccco1)C(=O)C2(NC(=O)c1ccc(Cl)cc1Cl)C(F)(F)F (stereo unspecified),i
Cc1ccc(CNC(=O)C2CC(c3cccc([N+](=O)[O-])c3)=NO2)cc1 (stereo unspecified),0.3
Cc1ccccc1OCCSc1nnc(C)n1-c1ccccc1,0.6
Cc1ccccc1OCC1Cc2c(nc(N)c(C#N)c2N)O1 (stereo unspecified),i
CCOC(=O)c1cc(C)sc1NC(=O)C1CCC1,i
CCOc1ccccc1CNC(=O)Cn1c(=O)oc2ccccc21,0.0
O=C(CCS(=O)(=O)c1ccc(Br)cc1)N1CCN(c2ccccc2)CC1,0.2
COc1cc(S(=O)(=O)Nc2ccccc2C)ccc1Cl,i
CC(C)(C)c1nnc2sc(SC/C(O)=C(\C#N)c3nc4ccccc4[nH]3)nn2c1=O,0.3
c1ccc(CNc2ncnc3c2oc2ccccc23)nc1,1.2
O=C(c1cccs1)N(Cc1ccccn1)Cc1ccco1,1.3
COc1cc(-c2noc(-c3cccc(Cl)c3)n2)cc(OC)c1OC,i
Cc1ccc(S(=O)(=O)NCC2CCC(C(=O)O)CC2)cc1 (stereo unspecified),i
Cc1ccc(NC(=S)NC2CC3CCCC(C2)N3Cc2cccs2)cc1 (stereo unspecified),i
COc1ccc(C(=O)Nc2cc(Cl)ccc2OC(=O)c2ccc(OC)cc2)cc1,i
COc1ccc(Cc2nnc(SCc3nc4ccccc4c(=O)[nH]3)o2)cc1,i
COc1ccccc1NC(=O)CSc1ccc2nnc(-c3ccncc3)n2n1,5.5
Cc1ccc(Sc2ccc(/C=N/O)cc2[N+](=O)[O-])cc1,i
Cc1ccc2cc3c(NC(=O)c4ccco4)nn(C)c3nc2c1,i
CCC(=O)N(CCC1(C(C)C)CCOC(C)(C)C1)Cc1ccco1 (stereo unspecified),0.5
CSc1ncc(Cl)c(C(=O)O)n1 (tested in a mixture with another compound),i
Nc1ccccc1N=Cc1c(O)n(CCC2=CCCCC2)c(=O)[nH]c1=O,i
CS(=O)(=O)N(Cc1nnc(-c2cccs2)o1)c1ccc(Cl)cc1F,1.6
Cc1cccnc1NC(=O)Nc1cccc2ccccc12,1.8
CCCOC(=O)CN1C(=O)c2ccc(C(=O)OCCC)cc2C1=O,i
SMILES,H5N1 antiviral
CCN1CCN(C(=O)c2ccc(CS(=O)(=O)Cc3ccccc3F)o2)CC1,i
C=CCOC(=O)C(C#N)c1nc2ccccc2nc1N1CCN(Cc2ccc3c(c2)OCO3)CC1 (stereo unspecified),i
COc1ccc(N(CC(=O)N2c3ccccc3CC2C)S(=O)(=O)c2c(C)noc2C)cc1 (stereo unspecified),2.2
O=C(Nc1ccccc1C(=O)NCCN1CCOCC1)c1ccco1,0.3
COc1ccc(NC(=O)/C(Cl)=C(/Cl)S(=O)(=O)Cc2ccc(C)cc2)cn1,i
O=C(Nc1ccccc1)N1CCN2C(=O)c3ccccc3C12c1ccccc1 (stereo unspecified),1.5
CCC(C)C(NC(=O)OC(C)(C)C)C(=O)NC(CC(C)C)C(N)=O (stereo unspecified),0.8
CCOC(=O)N1CCC(NC(=O)CN(C)S(=O)(=O)c2cc3c(cc2Cl)NC(=O)CO3)CC1,0.5
CCOc1cc(NC(=O)c2ccccc2C)c(OCC)cc1NC(=O)C1=Cc2ccccc2OC1,0.3
COC(=O)C1C2C=CC3(CN(c4cccc(Cl)c4)C(=O)C13)O2 (stereo unspecified),i
Cc1ccc(S(=O)(=O)NC(=O)NCCCCNC(=O)NS(=O)(=O)c2ccc(C)cc2)cc1,i
O=C(c1ccccc1OCc1ccccc1Br)N1CCN(c2ncccn2)CC1,i
Cc1cccc(N(CC(=O)NC2CCCCC2)C(=O)c2c(C)noc2C)c1,1.0
O=C(COC(=O)c1cncc(Br)c1)NCc1ccco1,1.0
CC1CCC(NC(=O)Cn2cc3c(n2)CCCC3)CC1 (stereo unspecified),0.2
Nc1cc(=O)nc(SCC(=O)NC2CCCCC2)n1-c1ccccc1,0.1
Cc1cc(OCC(=O)NCC(C)C)cc(C)c1Br,i
COc1ccc2cc(-c3cc(C(=O)O)c4ccccc4n3)ccc2c1,i
COc1ccc(NS(=O)(=O)c2ccc(Br)s2)cc1OC,0.1
Cc1cc(C)c(S(=O)(=O)N2CCN(c3ccc([N+](=O)[O-])c(NCC4CCCO4)c3)CC2)c(C)c1 (stereo unspecified),2.2
Cc1ccc(S(=O)(=O)Nc2ccccc2C(N)=O)cc1,i
COc1ccc(C2CC(C(F)(F)F)n3nc(C(=O)NCCCn4ccnc4)cc3N2)cc1OC (stereo unspecified),i
COC(=O)c1ccccc1NC(=O)CN(Cc1ccccc1)S(C)(=O)=O,0.9
O=C(c1ccc(F)cc1)N1CCN(c2ncccn2)CC1,i
CCOC(=O)c1cnc(SCc2ccc(C)cc2)nc1N,i

# In the list so far, these have a nitro group on carbon:
SMILES,H5N1 antiviral
Cc1cc(Nc2nc3ccccc3nc2Cl)n(-c2ccc([N+](=O)[O-])cc2)n1,i
Cc1ccc(CNC(=O)C2CC(c3cccc([N+](=O)[O-])c3)=NO2)cc1 (stereo unspecified),0.3
Cc1ccc(Sc2ccc(/C=N/O)cc2[N+](=O)[O-])cc1,i
Cc1cc(C)c(S(=O)(=O)N2CCN(c3ccc([N+](=O)[O-])c(NCC4CCCO4)c3)CC2)c(C)c1 (stereo unspecified),2.2

# The listing picks up, starting five compounds before the break.
SMILES,H5N1 antiviral
Cc1ccc(S(=O)(=O)Nc2ccccc2C(N)=O)cc1,i
COc1ccc(C2CC(C(F)(F)F)n3nc(C(=O)NCCCn4ccnc4)cc3N2)cc1OC (stereo unspecified),i
COC(=O)c1ccccc1NC(=O)CN(Cc1ccccc1)S(C)(=O)=O,0.9
O=C(c1ccc(F)cc1)N1CCN(c2ncccn2)CC1,i
CCOC(=O)c1cnc(SCc2ccc(C)cc2)nc1N,i
CN1CCn2c1nc(N1CCCCC1)nc2=O,i
O=C(Oc1cccnc1)c1cc(S(=O)(=O)N2CCOCC2)ccc1Cl,0.1
O=C1CCCN1CN1CCCCC1,i
COc1c(/C=N/Nc2nc(N3CCCCC3)nc(N3CCCCC3)n2)cccc1[N+](=O)[O-],0.4
CC(C(N)=O)N1CC(c2ccc(Cl)cc2)CC1=O (stereo unspecified),i
COc1ccc(OC)c(S(=O)(=O)Nc2cccnc2)c1,0.4
CCn1c(SCC(N)=O)nc2ccccc2c1=O,i
CCOCCCNC(=O)Cn1cc2c(n1)CCCCC2,i
CCOc1cc(C(=O)NC(C)c2ccncc2)cc(OCC)c1OCC (stereo unspecified),0.8
CCOc1c2ccc(C(=O)NC3CCCc4ccccc43)cc2nn1CC (stereo unspecified),1.5
COC(=O)c1sccc1NC(=O)c1ccc(OC)cc1,6.2
Cc1n[nH]c(=S)c2nn(-c3ccccc3F)c(C)c12,0.8
CCOP(=O)(C#CC(C)(C)C)C(O)(c1ccccc1)C(F)(F)F (stereo unspecified),0.3
C(=N\c1ncnc2sccc12)/NOCc1ccccc1,2.5
COc1ccc(S(=O)(=O)NCCSCc2ccco2)cc1Cl,i
O=C(COc1ccccc1)N1CCN(C(=O)c2cccs2)CC1,1.1
CC1CCN(c2ccccc2NC(=O)c2ccc(N3CCOCC3)c([N+](=O)[O-])c2)CC1,0.5
CC1=NOC(=O)/C1=C\c1ccc(-c2cccc(Cl)c2)o1,2.8
Nn1c(=O)c2ccccc2n2c(SCc3ccc(C(F)(F)F)cc3)nnc12,1.9
COc1ccc(OC)c(S(=O)(=O)Nc2ccc(C)c(C)c2)c1,0.8
COc1cc(NC(=O)CCNC(=O)Cn2cnc3ccccc3c2=O)cc(OC)c1OC,i
CCOc1ccc(N2CC(=O)N/C2=N\c2nc(C)cc(C)n2)cc1,i
O=c1[nH]c(Nc2ccc(F)cc2)cc2ccccc12,i
O=C(Nc1ccc2c(c1)OCO2)c1ccc(COc2ccc3c(c2)CCC3)o1,1.2
CC(C)Cn1c2c(c(O)c(C(=O)Nc3ncccc3O)c1=O)CCCC2,1.9
SMILES,H5N1 antiviral
COc1ccc(-c2csc(NC(=O)c3cccc(S(=O)(=O)N4CCN(C)CC4)c3)n2)cc1,0.1
O=C(c1cc(-c2ccco2)on1)N1CCOCC1,0.9
COc1ccc(-c2cn[nH]c2N)cc1,i
Cc1ccc(NC(=O)Nc2ccccc2C#N)c(Cl)c1,i
COc1ccc2nc(N3CCC(C)CC3)c(C#N)cc2c1,3.1
Oc1ccc(-c2[nH]ncc2-c2cccc3cccnc23)c(O)c1,i
CCOCCCNC(=O)CNC(=S)N(Cc1ccccc1F)C1CCCCC1,0.4
CC(=O)Nc1ccc(C(=O)Nc2ccc3c(c2)OCO3)cc1,i
N/C(Cc1cccs1)=N\OC(=O)COc1ccc(Cl)cc1Cl,0.7
CC(=O)/C=N/Nc1ccccc1,i
O=C(CN1CCN(c2ncc(C(F)(F)F)cc2Cl)CC1)N1CCN(c2ncc(C(F)(F)F)cc2Cl)CC1,i
c1ccc(COc2ccccc2CNCc2cccnc2)cc1,0.8
Cc1oc2c(c1C(=O)NC(Cc1c[nH]c3ccccc13)C(=O)O)CCCC2 (stereo unspecified),0.8
CC(=O)c1ccc(Oc2cc(C)nc(NCc3ccccc3)n2)cc1,0.9
N#Cc1cc2c(nc1SCC(O)CS(=O)(=O)Cc1ccc(Cl)cc1)CCCC2 (stereo unspecified),1.9
CC(C)NC(=O)c1onc(CSc2ccc(C(C)C)cc2)c1C(=O)O,i
COc1ccccc1-n1nc(C(=O)O)c2ccccc2c1=O,0.1
CCOC(=O)CNc1c(N2CCN(c3ccccn3)CC2)c(=O)c1=O,2.2
Cc1nc2c(C#N)c[nH]n2c(=O)c1Cc1ccccc1,i
CCn1c2ccccc2c2cc(NC(=O)C(C)Oc3ccccc3)ccc21 (stereo unspecified),1.6
Cc1c(N=Cc2nc3ccccc3[nH]2)c(=O)n(-c2ccccc2)n1C,i
COC(=O)C1CCN(S(=O)(=O)c2ccc(NC(C)=O)cc2)CC1,1.0
CCOC(=O)c1sc(NC(=O)c2ccc(S(=O)(=O)N(CC)CC)cc2)nc1C,i
CCOC(=O)c1c(C)n(C)c2cc(Br)c(C(=O)OC)cc12,1.5
O=c1[nH]c(CN2CCc3ccccc3C2)nc2ccccc12,0.7

# The final two compounds of the part above are carried over, then new ones follow.
SMILES,H5N1 antiviral
CCOC(=O)c1c(C)n(C)c2cc(Br)c(C(=O)OC)cc12,1.5
O=c1[nH]c(CN2CCc3ccccc3C2)nc2ccccc12,0.7
CC(Oc1ccc(Cl)cc1Cl)C(=O)NCCCN(C)C (stereo unspecified),i
COc1ccc(F)cc1S(=O)(=O)NC(Cc1ccccc1)C(N)=O (stereo unspecified),0.4
CCOC(CNC(=O)c1cc(C)nn1-c1ccccc1)OCC,0.5
Cc1onc(-c2c(F)cccc2Cl)c1C(=O)OCN1C(=O)c2ccccc2C1=O,0.3
CCc1nnc(NC(=O)Nc2ccc(OC)cc2)s1,0.4
O=c1cc(O)nc2n1CCCS2,1.2
NC(=O)c1cccc2c1C(=O)N(C1CCCCC1)C2,0.4
COc1cc(C(=O)Nc2ccccc2N2CCN(S(C)(=O)=O)CC2)cc(OC)c1OC,0.3
CCCCN(C(=O)c1cnc2n(c1=O)CCS2)c1ccccc1,1.5
Cc1cccc(-c2c3c(=O)n(C)c(=O)n(C)c3cn2C(C)(C)C)c1,0.4
Cc1cc(Br)ccc1NC(=O)CNC(=O)CSc1n[nH]c(N)n1,0.1
Fc1ccc(CN(Cc2ccccc2)C(c2cccs2)c2nnnn2C2CCCCC2)cc1 (stereo unspecified),4.0
CCn1cnc2sc(C(=O)N3CCN(Cc4ccc5c(c4)OCO5)CC3)c(C)c2c1=O,i

# Source: PubChem

# Some of the compounds tested, so the mix of outcomes need not match the whole.
